# Screens from PubChem.
# HNF4A DNA FP = change in binding of human HNF4A to DNA, primary screen, biochemical, fluorescence polarization, FITC-DNA; activity change, % at 10 µM; 1 h; hit rate 0.3% among 360,000; Hepatocyte nuclear factor 4-alpha (Homo sapiens), P41235; in the data active = activity change above about 30%, passing the limit was not always enough;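 note: controls were the assay level and a saturating level of protein; the project sought stronger binding though the title names inhibitors; some compounds called inactive have numbers as strong as hits; positive values seem to mean higher polarization but the record does not say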
# Target sequence (P41235 whole entry, looked up): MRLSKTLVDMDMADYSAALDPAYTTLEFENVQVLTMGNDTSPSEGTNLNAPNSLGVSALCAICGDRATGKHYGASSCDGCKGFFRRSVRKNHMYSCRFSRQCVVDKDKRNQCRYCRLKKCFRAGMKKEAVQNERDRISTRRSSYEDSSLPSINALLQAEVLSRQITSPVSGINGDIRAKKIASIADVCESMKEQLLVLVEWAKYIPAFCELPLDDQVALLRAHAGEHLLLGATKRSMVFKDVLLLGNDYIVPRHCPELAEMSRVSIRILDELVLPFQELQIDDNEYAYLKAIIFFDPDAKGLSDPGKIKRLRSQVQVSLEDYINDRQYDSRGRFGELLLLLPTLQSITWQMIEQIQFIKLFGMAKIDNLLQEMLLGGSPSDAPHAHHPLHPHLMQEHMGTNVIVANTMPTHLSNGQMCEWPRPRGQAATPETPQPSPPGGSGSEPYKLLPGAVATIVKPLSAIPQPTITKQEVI
# LANA-H2A inh = blockers of LANA interaction with H2A/H2B – biochemical, FP readout, HTS, primary screen | cell-free LANA-H2A/H2B peptide, fluorescence polarization | inhibition, % (test concentration not listed) | hit rate 0.6% among 320,000 | Protein LANA1 (Human herpesvirus 8 type P (isolate GK18)), Q9QR71; in the data active = inhibition mostly above about 10%, no sharp cut-off; inactive = mostly below about 6.7%;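 note: stock transfer was 7.5 nL into about 10 µL; 0% = median of vehicle wells and 100% = median of positive control wells; one replicate is shown; the record names a cut of 25% in any replicate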
# Calb FLC = C. albicans growth inhibition with fluconazole, primary screen, CaCi-2 strain, Alamar Blue fluorescence | C. albicans CaCi-2 (fluconazole-resistant clinical isolate) + fluconazole, 48 h | growth inhibition, % (concentration not given with the values) | hit rate 0.57% among 300,000;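 active = most replicates above 75%; inconclusive = exactly half above 75%; inactive = most below 75%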;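 note: all wells also contain fluconazole at 8 µg/ml as a sub-toxic cotreatment; 0% = median of DMSO wells and 100% = median of geldanamycin control wells; wells of about 8 µL received 7.5 nL stock; the first replicate is given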
# Beta2AR agonist = beta2AR agonists driving receptor internalization, primary screen, cell-based, FAP fluorogen, flow cytometry. Am2.2-beta2AR cells; reference of the scale not given here. hit rate 0.43% among 340,000. response, % (no concentration beside the values). Beta-2 adrenergic receptor (Homo sapiens), P07550;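 active = response above a set limit, near 3 SD of response in nonfluorescent compounds, cut at about 42% in these data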;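 note: stock transfer was 100 nL into about 11 µL; a reference agonist was the positive control; negative values mostly stem from fluorescent compounds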
# ALR H2O2 inh = inhibitors of human ALR sulfhydryl oxidase, primary screen, biochemical, H2O2 detection, HRP-luminol luminescence, single point. FAD-linked sulfhydryl oxidase ALR (Homo sapiens), P55789. purified ALR, DTT oxidation. inhibition, % (test concentration not listed). hit rate 3.8% among 290,000;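 active = mean and each replicate at 75% or more; inconclusive = only one of the two met; inactive = neither met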;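 note: stock transfer was 7.5 nL into about 7.5 µL; 0% = neutral wells and 100% = wells with inactivated enzyme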
# Target sequence (P55789 whole entry, looked up): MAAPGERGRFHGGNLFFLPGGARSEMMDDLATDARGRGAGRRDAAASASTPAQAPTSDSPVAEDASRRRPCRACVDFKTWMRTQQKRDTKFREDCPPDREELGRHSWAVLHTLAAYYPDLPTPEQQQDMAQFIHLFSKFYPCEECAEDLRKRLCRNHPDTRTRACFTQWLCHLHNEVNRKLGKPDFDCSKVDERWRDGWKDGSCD
# Vif TR-FRET = inhibitors of Vif binding to APOBEC3G peptide, primary screen, biochemical, TR-FRET, GST-Vif 1-94, biotin-A3G peptide, dose response retest (AID 1117319); Virion infectivity factor (Human immunodeficiency virus type 1 group M subtype B (isolate …; hit rate 0.57% among 260,000; inhibition, %, or IC50 in µM where a hit was titrated; TR-FRET GST-Vif / biotin-A3G peptide binding; higher % means a stronger effect; test concentration not given here; strong numbers were not always called active;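 active = above the screen mean plus three standard deviations and confirmed in dose response; inconclusive = results disagree or hit not tested in dose response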;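 note: Vif residues 1-94 fused to GST binding biotinylated APOBEC3G peptide 110-148; 0% = full assay without inhibitor and 100% = GST in place of GST-Vif; retest series ran down from 100 µM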
# RanGTP-Imp inh = inhibitors of RanGTP-importin-beta interaction, primary screen, biochemical, FRET, CFP-Ran, YFP-importin-beta, homogeneous. Ran GTPase (GTP-bound) - importin-beta complex. cell-free CFP-Ran/YFP-importin-beta FRET ratio. inhibition, % (no concentration beside the values). hit rate 1.1% among 300,000. AID 2216, 2009;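 active = most replicates above 15%; inconclusive = exactly half above 15%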;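 note: 0% = DMSO wells and 100% = Ran loaded with GDP instead of GTP; wells of about 40 µL received 100 nL stock; the first replicate is given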
# * marks the source's active call; other numbers are inactive results; u = inconclusive; x = no result given; & = joins results of further samples. Compounds were not picked by outcome, and some 6.3% of all compounds hit somewhere here.
structure	HNF4A DNA FP	LANA-H2A inh	Calb FLC	Beta2AR agonist	ALR H2O2 inh	Vif TR-FRET	RanGTP-Imp inh
CCOc1cc(C2C3=C(CCCC3=O)N(CCC(=O)O)C3=C2C(=O)CCC3)ccc1OS(=O)(=O)c1ccc(C)cc1	-11	-9.9	-3	0	-12	17%	104*
O=C1CN(C(=O)CNC(=O)c2cccc(Cl)c2)c2ccccc2N1	1.7	-1.4	-20	-1	0	21%	4.6
Cc1cccc(N2C(=O)CC(N3CCN(C(=O)c4ccccc4)CC3)C2=O)c1 (stereo not given)	5.3	-4.1	7	2	-3	-1%	-1.7
CN(CC(=O)Nc1cccc(F)c1)C(=O)c1ccc(N2CCCC2)c([N+](=O)[O-])c1	-2.5	x	-8	-7	x	-2%	-1.3
Cc1c(C2(c3c(C)n(C)n(-c4ccccc4)c3=O)C(=O)Nc3ccc(F)cc32)c(=O)n(-c2ccccc2)n1C	-1.7	-0.8	-2	-1	x	8%	u
CCc1cc(=S)n2c([nH]c3ccccc32)c1C#N	-33	8.4	97*	11	-21	-6%	3.2
O=C(NCCc1ccccc1)C1CCN(C2CCN(C(=O)CC3=CCCCC3)CC2)CC1	-2.4	-2.3	-2	0	x	u	-1.0
Cc1c2c(nc3nnnn13)CCCC2	0.9	-4.3	1	3	-12	x	-0.5
CCC1(C)CC(C(N)=S)CCO1 (stereo not given)	-1.4	3.9	0	-1	0	-5%	-0.5
CCSCCC(NC1=CC(=O)CC(C)(C)C1)C(=O)O (stereo not given)	-0.7	3.2	-3	1	-4	2%	-2.6
CC1CCc2c(sc3ncn(CCO)c(=O)c23)C1 (stereo not given)	-0.3	-1.2	7	-12	2	31%	-5.4
CCOc1ccc(CCNC(=O)c2nn(C)c3c2CS(=O)(=O)c2ccccc2-3)cc1OCC	1.7	-1.1	-4	8	-9	20%	1.2
Cc1nnc(NC(=O)CSc2nnc(Cc3cccn3C)n2-c2ccccc2)s1	-3.0	-1.6	-7	4	36	3%	0.2
O=C(NCC1CCCO1)c1ccc(S(=O)(=O)N2CCC(c3nc4ccc(Cl)cc4[nH]3)CC2)cc1 (stereo not given)	-2.9	-0.9	4	3	-10	0%	1.0
Cn1cnc2cc(NC(=O)COc3ccccc3)ccc21	3.4	-4.8	5	1	-58	x	u
CC(CCc1ccccc1)NC(=O)COC(=O)c1cccc2ccccc12 (stereo not given)	-1.0	0.9	3	1	-19	-6%	1.3
O=C(N/N=C/c1cn(-c2ccccc2)nc1-c1cc2ccccc2o1)c1c[nH]c2ccccc12	-1.3	-5.0	-27	-6	-46	2%	1.2
Cc1nn(-c2ccccc2)c(C)c1/C=N/n1c(-c2ccccc2Br)n[nH]c1=S	-0.6	2.6	1	7	96*	20%	-0.2
CCN1CCN(Cc2ccc(NC(=O)c3cc(NC(=O)N4CCNC4=O)cc(OC)c3)cc2C(F)(F)F)CC1	0.0&5.3	-3.4	5	9	0	-2%	-0.3
O=C(NC1CCCCC1)C(c1ccco1)N(CCc1ccccc1)C(=O)C(F)(F)F (stereo not given)	-5.7	-2.3	-14	23	-1	-12%	1.1
CC1=CCC(C(=O)O)C(C(=O)Nc2ccc(-c3nc4ccc(C)cc4s3)cc2)C1 (stereo not given)	0.1	-3.4	46	5	53	0%	-2.1
CCCc1nn(C)c(C(=O)Nc2ccccc2)c1Cl	-1.5	-2.5	-15	-1	-9	0%	2.3
Cc1ccc(Cl)cc1NC(=O)CC1NCCNC1=O (stereo not given)	2.0	-1.7	-3	1	-2	1%	2.4
CCCNC(C)C(=O)Nc1ccccc1C (stereo not given)	4.0	2.6	x	-3	-4	-9%	-3.2
Nn1c(SCC(=O)Nc2ccc3c(c2)CCC3)nnc1C1CC1	5.0	-5.2	x	-6	99*	-4%	x
CCN(C(=O)CSc1nnc(Nc2ccccc2C)s1)C1CCS(=O)(=O)C1 (stereo not given)	1.3	6.9	-11	-8	-2	x	1.6
Cc1ccc(NC(=O)c2ccc(NC3=NC4CS(=O)(=O)CC4S3)cc2)cc1 (stereo not given)	0.1	1.6	-1	4	-2	x	12
CC(C)(C)N1[C@@H](CC(=O)O)c2cc(C(F)(F)F)ccc2S1(=O)=O	-0.2	-3.3	-13	-7	-5	x	-1.4
Cc1occc1C(=O)OCC(=O)Nc1ccc(F)cc1	-2.8	-0.4	x	-1	-7	0%	1.4
Cc1ccc(-c2ccc(/C=N/N3C(=O)C4C5C=CC(C6CC56)C4C3=O)o2)c([N+](=O)[O-])c1 (stereo not given)	-0.8	0.4	-7	0	-2	9%&8%	-1.6
Cc1ccccc1C(=O)Oc1ccc2ccc(O)cc2c1	0.8	12	-1	-5	-56	x	-4.9
COc1cc(/C=C/C(=O)O)ccc1OS(=O)(=O)c1ccc(C)cc1	0.2	0.4	-2	8	3	2%	-4.9
Cc1nc2ccc(S(=O)(=O)NCC(=O)N(C)Cc3ccco3)cc2s1	-1.9	1.7	0	2	u	2%	-0.2
O=C(/C=N/O)NCCCn1ccnc1	3.6	3.0	-3	-9	-6	4%	5.1
Cc1ccc(C)n1NC(=O)c1ccccc1	4.3	2.4	2	1	11	14%	-0.3
Cc1ccc(O)c(CO)n1	-2.0	-3.5	8	-2	0	17%	3.0
Cc1onc(-c2ccccc2)c1C(=O)Nc1ccc(OC(C)C)cc1	1.7	0.8	0	-8	-26	2%	-2.3
O=C(c1ccccc1)c1cc(-c2ccccn2)c(N2CCOCC2)s1	-4.8	1.5	21	-5	x	4%	5.0
O=C(CSc1cccs1)NCCc1ccccc1	0.6	-0.1	-2	3	-2	-3%	-0.7
O=C(Cn1cnc2ccccc2c1=O)OCCCCN1C(=O)c2ccccc2C1=O	0.2	-0.7	-11	-8	-8	2%	1.5
CC1CCN(CCCNC(=O)CCNC(=O)Cn2cnc3ccccc3c2=O)CC1	-0.2	-1.9	-3	-2	0	x	0.7
N#CC(C(=O)Nc1ccccc1)=C1Nc2ccccc2N1	-3.4	0.2	48	-21	86*	19%	-0.5
O=C(Cc1ccc([N+](=O)[O-])cc1)N/N=C/c1ccco1	0.6	-1.2	-6	1	-12	3%	-15
COc1ccc(C(=O)OCC(=O)Nc2ccc(OC)c(S(=O)(=O)N3CCCCC3)c2)cc1[N+](=O)[O-]	0.3	x	x	-1	x	4%	x
CCOC(NC(=O)c1ccccc1)C(NC(=O)c1ccccc1)OCC (stereo not given)	-0.8	0.8	-23	-2	-10	-1%	5.9
Cc1ccc(-n2ncc3c(=O)n(CC(=O)NCc4ccco4)cnc32)cc1	2.7	-0.1	3	-2	-1	20%	-3.2
O=C(Nc1ccc2c(c1)OCO2)C1CCCN1C(=O)NCc1ccccc1 (stereo not given)	0.2	-0.6	-5	0	-17	2%	3.1
O=C(CCC1CCCCC1)Nc1ccc(C(=O)c2ccncc2)cc1	-2.5	2.3	-11	-1	11	6%	3.0
COc1cc(-c2cc(C(=O)NN3CCN(C)CC3)c3ccccc3n2)cc(OC)c1OC	x	3.6	3	x	26	x	-0.7
COc1ccc(OCC(=O)Nc2nc3ccccc3[nH]2)cc1	-2.2	-1.2	-2	3	1	-6%	u

# Going on with the list.
structure	HNF4A DNA FP	LANA-H2A inh	Calb FLC	Beta2AR agonist	ALR H2O2 inh	Vif TR-FRET	RanGTP-Imp inh
CCC(=O)Nc1ccc(C2=Nn3c(nnc3C(C)C)SC2)cc1	2.0	2.6	-2	-7	x	5%	-0.4
COC(=O)C1=C(C)N(Cc2ccc3c(c2)OCO3)C(=O)C1	-1.9	2.2	-1	5	24	0%	-1.5
CCOC(=O)N1CCN(C(=O)c2cn(C)c3ccc(S(=O)(=O)N4CCC(C)CC4)cc3c2=O)CC1	0.0	-1.5	-6	-15	1	2%	-1.4
Cc1ccoc1C(=O)N1CCCCC1C(=O)O (stereo not given)	3.3	-1.6	-7	-2	-1	27%	-0.1
COc1ccc2c(Cl)c(C(=O)N/N=C3\CCCC(=O)C3)sc2c1	165	4.2	-3	-132	40	x	5.0
COc1ccccc1C(=O)NC(C)c1ccccc1 (stereo not given)	-6.1	-3.3	-2	-5	1	1%	5.2
Cc1cc(/C=N/NC(N)=S)c(C)n1-c1ccc(Cl)c(Cl)c1	-3.0	2.6	-20	10	45	x	4.7
Cc1ccccc1CCN1CCCC(CN(C)C(=O)C(=O)c2ccco2)C1 (stereo not given)	-1.6	-5.5	-17	0	0	x	0.8
COc1ccc(CNC(=O)CN(c2cc(C)cc(C)c2)S(=O)(=O)c2c(C)noc2C)cc1	0.3	-2.2	-3	3	u	-5%	-2.7
O=C1C2C3c4ccccc4C(c4ccccc43)C2C(=O)N1/N=C/c1cccc(O)c1 (stereo not given)	0.0	-1.6	13	13	2	1%	-0.9

# As entered above:
# `O=C1C2C3c4ccccc4C(c4ccccc43)C2C(=O)N1/N=C/c1cccc(O)c1` (stereo not given) in Vif TR-FRET reads 1%
# `Cc1ccccc1CCN1CCCC(CN(C)C(=O)C(=O)c2ccco2)C1` (stereo not given) in HNF4A DNA FP reads -1.6

# The results go on:
structure	HNF4A DNA FP	LANA-H2A inh	Calb FLC	Beta2AR agonist	ALR H2O2 inh	Vif TR-FRET	RanGTP-Imp inh
CN(Cc1ccccc1)C(=O)CCS(=O)(=O)c1ccc2c(c1)n(C)c(=O)c(=O)n2C	0.2	-1.9	-14	1	u	-3%	-3.5
O=C(CCc1nnc(Cc2c[nH]c3ccccc23)o1)NCC1CC12CCCCC2 (stereo not given)	-0.2	5.9	-14	2	-7	21%	0.9
CCOc1ccccc1/C=c1\sc2ncnn2c1=O	1.7	1.1	0	4	39	-4%	5.8
Cc1nn(-c2ccc(C(=O)O)cc2)c(=O)c2ccccc12	-3.6	-3.0	-4	5	-6	-8%	5.3
Cc1cc(C)c(NC(=O)CNC(=O)c2ccccc2OCc2c(C)noc2C)c(C)c1	-2.2	x	4	3	x	3%	-1.4
Cc1ccc(NC(=O)Cc2nnc(SCC(=O)Nc3nncs3)n2C)c(C)c1	-1.9	2.2	-6	1	0	x	-2.2
C=CC[C@]12CC=CC(=O)[C@@]1(O)O[C@H](c1ccc(OC)c(OC)c1)[C@H]2C	1.4	-0.3	-2	7	x	x	-0.5
COc1ccc(C2C(C#N)=C(N)OC3=C2C(=O)CCC3)cc1Cn1cc([N+](=O)[O-])cn1 (stereo not given)	0.6	0.0	4	0	19	x	0.9
O=C(NCc1nnc(SCc2ccccc2)n1-c1ccccc1)C12CC3CC(CC(C3)C1)C2	2.7	5.0	-48	-274	-17	x	-2.7
O=C(NCCc1ccccn1)c1cccc(S(=O)(=O)N2CCc3ccccc32)c1	1.5	-1.0	16	1	6	0%	0.8
O=C(O)c1ccc(NC(=S)NC(=O)c2ccc3ccccc3c2)cc1	4.7	5.7	3	5	-11	x	9.7
O=C(Cc1c(F)cccc1Cl)Nc1ccccc1C(=O)N1CCOCC1	-3.9	2.3	2	24	1	-5%	-1.3
FC(F)Oc1ccccc1/C=N/n1cnc2ccccc21	0.3	4.1	20	5	-6	-5%	11
